Cruzain inh noDet: cruzain (T. cruzi) inhibition without detergent. P25779. purified cruzain, Z-FR-AMC fluorescence, no detergent. Potency, µM, inactives show max response, negative = inhibition, actives largely listed as inhibitors. 200,000 tested, 2.3% active; active means well fitted curve in the direction sought with a large enough effect; inconclusive means small, poorly fitted or top-dose-only effect, or another doubt; inactive means no such curve, though single readings can be large; an effect the other way counts as inactive or inconclusive;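 further: plate controls were enzyme without inhibitor for no effect and buffer without enzyme for full effect; nearly all actives have a fitted effect of over 40% in size; top concentration of the series not given in the record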
Target sequence (P25779 123-467 limits assumed): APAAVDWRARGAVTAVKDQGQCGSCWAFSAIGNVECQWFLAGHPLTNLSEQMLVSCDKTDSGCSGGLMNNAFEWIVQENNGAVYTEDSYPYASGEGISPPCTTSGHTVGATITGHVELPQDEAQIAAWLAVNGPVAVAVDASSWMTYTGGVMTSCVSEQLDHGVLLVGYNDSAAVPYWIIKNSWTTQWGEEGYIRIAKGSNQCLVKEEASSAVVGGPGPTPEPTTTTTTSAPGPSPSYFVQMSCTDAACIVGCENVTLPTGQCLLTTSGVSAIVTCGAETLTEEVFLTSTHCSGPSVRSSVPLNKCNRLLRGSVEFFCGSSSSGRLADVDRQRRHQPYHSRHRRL
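Detergent-free condition (0.00005% Triton X-100) in acetate buffer pH 5.5 with DTT. 1.5 nM enzyme and compound were pre-mixed 15 min, then 2 uM Z-FR-AMC substrate added; reaction progress from fluorescence change between first and third reads (60 s).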
SARS PLpro yeast: inhibitors of SARS-CoV papain-like protease in yeast. AID 485353. 330,000 tested, 0.19% active. Potency, µM (titrated, usually from 32.9 µM), for the others: top-dose activity, positive = growth rescue. S. cerevisiae expressing SARS-CoV PLpro, growth rescue; control for the full effect not named in the record; further: 0% is about no effect; nearly all actives have a fitted effect of over 55% in size; growth read by luminescence after 48 h
Lassa entry inh: inhibitors of Lassa virus binding or cell entry; Lassa virus pseudotype entry inhibition, cell reporter; control for the full effect not named in the record; Potency, µM (doses to about 37.9 µM), for inactives: at the highest dose activity change, negative = inhibition, most hits filed as inhibitors; 300,000 tested, 1.2% active; active means well fitted inhibition curve with a large enough effect; inconclusive means small, poorly fitted or top-dose-only effect, or effect the other way; inactive means flat fitted curve, though single readings scatter; tested in HEK293 cells; further: on the % scale 0 is the no-effect control and ±100 the full control effect; nearly all actives have a fitted effect of over 50% in size; luciferase read-out
Cruzain inh Det: blocks cruzain activity in presence of Triton detergent; 200,000 tested, 0.43% active; Potency, µM, without a hit: max response, negative = inhibition, hits mostly inhibitors; purified cruzain, Z-FR-AMC fluorescence, 0.01% Triton; active means well fitted curve in the direction sought with a large enough effect; inconclusive means small, poorly fitted or top-dose-only effect, or another doubt; inactive means no such curve, though single readings can be large; an effect the other way counts as inactive or inconclusive;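 further: plate controls were neutral wells for no effect and buffer without enzyme for full effect; nearly all actives have a fitted effect of over 40% in size; top concentration of the series not given in the record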
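15 min RT preincubation of 1.5 nM cruzain with compound, then 2 uM Z-FR-AMC added; kinetic AMC fluorescence, 60 s delta. Triton X-100 0.01%, pH 5.5.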
RE007 growth inh: less growth of the S. pombe RE007 Vpr strain; S. pombe RE007 Vpr strain, BacTiter-Glo ATP luminescence, 24 h; control for the full effect not named in the record; Potency, µM (titrated, usually from 92.2 µM), without a hit: at the highest dose activity change, negative = less growth; AID 651644; 360,000 tested, 0.21% active; active = well fitted falling curve with a large enough effect; inconclusive = small, poorly fitted or top-dose-only effect; inactive = no such curve, though single readings can be large or run the other way;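 further: on the % scale 0 is the no-effect control and ±100 the full control effect; nearly all actives have a fitted effect of over 50% in size; the assay follows cell death caused by Vpr and the record does not say whether a fall means rescue or toxicity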
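Fission yeast RE007 carrying one integrated HIV-1 vpr copy, seeded at OD 0.01 in PMG+AL medium with 23 nL pinned compound. Grown 24 h at 30 degrees; viability read by BacTiter-Glo luminescence after 5 min.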
Marburg entry inh: Marburg virus entry inhibition. Marburg virus pseudotyped entry inhibition, cell reporter; control for the full effect not named in the record; about a third of the inactives were read at about 46 µM. Potency, µM (highest dose often 37.8 µM), for the others: at the highest dose activity change, negative = inhibition, most hits filed as inhibitors. 300,000 tested, 1.8% active; active = well fitted inhibition curve with a large enough effect; inconclusive = small, poorly fitted or top-dose-only effect, or effect the other way; inactive = flat fitted curve, though single readings scatter; tested in HEK293 cells; about a fifth of its hits are not listed in these tables; further: on the % scale 0 is the no-effect control and ±100 the full control effect; luciferase read-out
2A StopGo: lowers the luciferase signal of an FMDV 2A StopGo reporter; AID 1159524; human cells with a luciferase reporter of 2A StopGo recoding; control for the full effect not named in the record; 410,000 tested, 1.2% active; Potency, µM (doses to about 57.9 µM), for the others: at the top dose signal change, negative = less light; active = well fitted falling curve with a large enough effect; inconclusive = small, poorly fitted or top-dose-only effect; inactive = no such curve, though single readings can be large or run the other way; tested in HEK293T cells; further: on the % scale 0 is the no-effect control and ±100 the full control effect; nearly all actives have a fitted effect of over 45% in size; luciferase light after 4 h
NS1 function inh: influenza NS1 inhibition | S. cerevisiae slowed by influenza A NS1, growth recovery by OD600 | Potency, µM (highest dose often 46.1 µM), for inactives: at the highest dose activity, positive = more growth | 270,000 tested, 0.4% active; further: actives are rising curves; nearly all actives have a fitted effect of over 50% in size
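Recovery from NS1-induced slow growth read by OD600 in budding yeast switched to galactose assay medium (pH 6.0, -URA) at 1:100 dilution. Compound 23 nl per well; the matching strain lacking NS1 serves as control.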
* hit, by the source's call; ? = inconclusive; . = no result given; [ ] = remark or other dose. Unless noted, the call rests on the fitted dose curve; in most records, active means well fitted rising curve with a large enough effect; inconclusive means small, poorly fitted or top-dose-only effect; inactive means no such curve, though single readings can be large or run the other way. Potency means the concentration at half of the fitted maximal effect.

SMILES	Cruzain inh noDet	SARS PLpro yeast	Lassa entry inh	Cruzain inh Det	RE007 growth inh	Marburg entry inh	2A StopGo	NS1 function inh
Cc1ccc(S(=O)(=O)NCC(=O)NCC(=O)N2CCC(C)CC2)cc1	.	2.1%	15.8%	.	5.8%	6.4%	-7.2%	18.6%
CN1CCN(C(=O)c2ccc3c(Cl)c4c(nc3c2)CCCC4)CC1	.	0.6%	.	.	1.8%	.	-6.9%	1.8%
CC12CCC(C(N)=O)(c3nc4ccccc4nc31)C2(C)C (configuration not stated)	0.5%	6.8%	5.6%	3.1%	-3.4%	2.5%[46.1 µM]	-27.5%	12.2%
Cc1ccc(N(C(=O)Cn2nnc(-c3ccc(C)o3)n2)C(C(=O)NC2CCCC2)c2ccncc2)cc1 (configuration not stated)	.	0.1%	.	.	3.9%	-1.5%[46.1 µM]	8.2%	0.5%
O=C(O)CCCNS(=O)(=O)c1cccc2nsnc12	-16.8%	-5.3%	-0.2%	2.2%	-9.9%	12.8%	-7.3%	7.5%
COc1ccc(-c2nc3ccccc3c(=O)o2)cc1	.	-3.4%	-14.1%[46.1 µM]	.	?	?	23.2%	-5.2%
Cc1cc(C)n(CCC(=O)N2CCCC(Nc3ccc(F)cc3)C2)n1 (configuration not stated)	.	.	21.8%	.	-4.3%	0.3%	-17.7%	.
Cc1csc2nc(-c3ccc(NS(=O)(=O)c4cccc(F)c4)cc3)cn12	?	.	10.6%[46.1 µM]	-4.0%	.	.	14.8%	.
CC1=C(C(=O)OCC2CCCCC2)C(c2ccc(O)cc2)NC(=O)N1 (configuration not stated)	.	-0.3%	?	.	-13.8%	-0.6%	-22.1%	6.6%
O=C(NCCN1CCOCC1)C12CC3CC(C1)CC(c1ccccc1)(C3)C2	.	0.0%	11.9%	.	-6.3%	21.7%[46.1 µM]	-7.7%	.
COC(=O)COc1cccc(NS(=O)(=O)c2ccc(NC(C)=O)cc2)c1	8.4%	-0.1%	0.5%	-5.6%	1.1%	1.4%	.	-3.8%
O=C(N/N=C/c1cccc([N+](=O)[O-])c1)C1CC(=O)N(c2ccc(Cl)cc2)C1 (configuration not stated)	16.6%	0.5%	-29.1%	-0.6%	4.2%	-22.8%	?	-5.9%
CCCN(CC1CC1)C(=O)Nc1ccccc1C	-3.0%	1.2%	0.0%	-2.1%	12.9%	-6.0%	-12.3%	10.9%
Cc1nn(C(C)C(=O)Nc2ccc3c(c2)OCO3)c(C)c1[N+](=O)[O-] (configuration not stated)	.	-0.3%	.	.	12.7%	.	21.0%	1.2%
CCCOC(=O)/C(C(N)=NCc1ccccc1)=C(\O)OCCC	4.3%	-12.4%	?	-11.3%	-13.8%	?	-25.8%	-86.2%
CC(NC(=O)C12CC3CC(CC(C3)C1)C2)C(=O)NN=Cc1ccc([N+](=O)[O-])o1 (configuration not stated)	.	2.4%	?	.	2.3%	?	?	.
CN1CCN(C(=O)COc2ccc3ccccc3c2)CC1	.	0.2%	24.1%	.	-9.3%	?	26.7%	2.8%
COCCNCC(=O)Nc1ccc(OC(F)(F)F)cc1	.	-9.5%	-0.3%	.	4.4%	2.6%[46.1 µM]	4.5%	.
CCn1c(=O)cc(OCC(=O)NC(C)c2ccc3c(c2)OCCO3)c2ccccc21 (configuration not stated)	7.8%	-18.5%	1.4%	3.2%	-15.7%	12.9%	?	-5.0%
Brc1cccc(-c2nnn3c2nc(NCc2ccc4c(c2)OCO4)c2ccccc23)c1	-22.0%	.	20.6%[46.1 µM]	-2.1%	.	?	27.7%	.
COc1cccc2cc(C(C)N(CCCN3CCOCC3)C(=S)Nc3c(C)cccc3C)oc12 (configuration not stated)	.	1.2%	-26.3%[46.1 µM]	.	-6.8%	?	-3.2%	.
C=CCNc1sc(C(=O)c2ccccc2)c(N)c1-c1nc2ccccc2s1	7.94µM*	2.4%	?	-1.4%	?	?	0.0%	-35.8%
CCSc1cc(C)nc2c(-c3ccccc3)c(C)nn12	4.7%	-5.8%	19.5%	-3.1%	20.0%	-18.4%	14.6%	-2.3%
O=C(Nc1cc(Cl)ccc1N1CCOCC1)c1ccc(N2CCCCC2)c([N+](=O)[O-])c1	.	.	16.0%	.	-3.4%	0.5%[46.1 µM]	0.9%	.
O=C(NCc1cccs1)Nc1ccc2c(c1)OCO2	1.4%	-1.6%	18.1%	7.4%	4.9%	29.4%	89.2%[activator]	-1.0%
CCOC(=O)CC(=O)CSc1nc2c(sc(=S)n2-c2ccccc2)c(=O)[nH]1	0.2%	-3.4%	-27.2%	-9.7%	-3.7%	4.4%	-16.3%	-11.6%
Cc1ccc(C(=O)O)cc1NC(=O)C1CCN(S(=O)(=O)c2ccc3c(c2)OCCO3)CC1	.	7.0%	4.1%[46.1 µM]	.	-12.2%	-6.8%[46.1 µM]	-0.5%	.
CCOc1ccc(-c2nn(-c3ccc(F)cc3)c3c2cnc2ccc(F)cc23)cc1	5.4%	.	-1.9%[46.1 µM]	-1.8%	.	-2.3%[46.1 µM]	-9.2%	.
CCOC(=O)C1=C(C)NC(=O)NC1c1ccc(N(CC)CC)cc1 (configuration not stated)	-7.2%	2.3%	.	2.3%	-6.7%	.	-9.7%	-0.3%
Cc1nc2nc3c(cn2n1)C(=O)CCC3	0.1%	?	0.3%	2.1%	3.9%	0.9%	-11.4%	5.9%
Cc1ccc(-n2c(SCC(=O)N3c4ccccc4Sc4ccccc43)nnc2-c2ccncc2)cc1	24.0%	-19.2%	?	-6.2%	-7.1%	-6.8%	?	-1.1%
Cc1ccn2c(Nc3c(C)cccc3C)c(-c3ccsc3)nc2c1	?	.	17.8%[46.1 µM]	-13.1%	.	-27.8%[46.1 µM]	-25.1%	.
O=C(COc1ccc(Cl)cc1)NCc1nnc(SCC(=O)c2ccccc2)o1	-1.7%	-5.2%	-17.3%	1.1%	1.2%	-14.9%[46.1 µM]	-17.3%	11.5%
CCCCN1CC(c2nc3ccccc3n2CCCCOc2cc(C)cc(C)c2)CC1=O (configuration not stated)	-7.3%	.	-6.6%[46.1 µM]	-4.5%	.	13.8%[46.1 µM]	?	.
O=C(COc1ccc(Cl)cc1Br)Nc1ccccc1N1CCCC1	.	-38.3%	-0.9%	.	-16.7%	?	-5.1%	.
Cc1cc(C)nc(SCc2ccc(C(=O)N/N=C/c3ccncc3)cc2)n1	.	-3.4%	-2.0%[46.1 µM]	.	2.9%	4.4%[46.1 µM]	-5.8%	.
COc1ccccc1C(=O)NCC(c1cccs1)N1CCc2ccccc21 (configuration not stated)	.	0.5%	-10.4%	.	0.3%	?	?	.
O=C(NC1CC(=O)N(c2ccc(F)cc2)C1)c1ccc(S(=O)(=O)N2CCCCC2)cc1 (configuration not stated)	-6.0%	.	-9.2%[46.1 µM]	0.4%	.	.	-23.5%	.
c1ccc(CNCCCNCCCCNCCCNCc2ccccc2)cc1	.	.	?	.	-5.9%	?	-9.3%	.
O=C(Nc1ccon1)c1ccc(S(=O)(=O)N2CCOCC2)cc1	.	0.2%	1.6%	.	-1.2%	7.7%	-20.1%	2.8%
COc1ccc(S(=O)(=O)N(C)CC(=O)NC2CC2)cc1OC	.	-2.8%	1.4%[46.1 µM]	.	16.8%	32.1%[46.1 µM]	28.8%	0.5%
O=C(CN1C(=O)NC2(CCCC2)C1=O)OCc1c(F)cccc1Cl	.	2.7%	10.5%	.	7.0%	12.8%[46.1 µM]	6.0%	.
O=C1N=C(N2CCCCC2)S/C1=C\c1ccncc1	.	-0.2%	-14.0%	.	1.8%	?	-24.5%	1.5%
CCO[C@@H]1OC(C(=O)NC2CC2)=C[C@H](c2ccc(C(F)(F)F)cc2)[C@H]1CCCO	.	-0.5%	.	.	5.9%	.	-10.5%	3.5%
CCOC(=O)c1cc2ccc(OC)c(OC)c2c(=O)s1	9.3%	-5.0%	16.5%	-5.9%	-22.0%	2.9%	41.0%[activator]	-2.1%
COc1ccc(OC)c(NC(=O)CN(C)S(=O)(=O)c2ccc(C(=O)N3CCOCC3)s2)c1	19.9%	.	15.6%[46.1 µM]	-0.2%	.	.	-21.4%	.
COCCN1CCn2c(nc3cc(NS(C)(=O)=O)ccc32)C1	.	-2.6%	17.1%	.	-19.8%	?	19.5%	-4.6%
O=C(O)c1ccc2nc(-c3ccco3)c(-c3ccco3)nc2c1	.	0.2%	-1.1%	.	-11.1%	?	11.8%	9.3%
CSc1ccc(C(=O)C2CCCN(S(=O)(=O)c3c(C)noc3C)C2)cc1 (configuration not stated)	.	0.5%	.	.	23.9%	.	?	-0.3%
CCCCN(C1CCS(=O)(=O)C1)S(=O)(=O)c1ccc(OC)cc1 (configuration not stated)	.	3.2%	12.7%	.	22.7%	2.3%[46.1 µM]	-11.6%	.
O=C(CSc1ccc(Cl)cc1)N1CCC(c2nc3ccccc3s2)CC1	?	-25.1%	?	-5.8%	-4.1%	?	?	-74.4%
NC(=S)Cc1nc2n(n1)Cc1ccccc1-2	1.6%	15.2%	-19.3%	0.2%	1.9%	-0.4%	15.2%	0.7%
CCOC(=O)N1CCN(C(=O)c2ccc(S(=O)(=O)Nc3cccc(C(F)(F)F)c3)cc2)CC1	.	-10.5%	-5.1%	.	-21.2%	?	-17.1%	.
CCN1C(=O)/C(=C\C=C2/C=CC=CN2CC)SC1=S	-7.6%	-47.7%	-18.9%	-19.2%	?	2.0%	-43.9%	-36.2%
COc1ccc(OCCSc2nnc3c(Cl)cc(Cl)cn23)cc1	-2.6%	-6.6%	5.3%	1.5%	4.9%	?	-12.7%	-22.1%
O=C(CSc1nnc(CNC(=O)c2cccs2)o1)Nc1cccc(F)c1	.	2.4%	.	.	4.3%	.	-11.7%	6.4%
O=C(Nc1ccc(Br)cc1)c1ccc(CSC2=NCCS2)cc1	?	-2.4%	-16.6%	7.4%	-12.6%	-29.6%	-27.5%	9.6%
N#CC1(Nc2cccc(Br)c2)C(=O)Nc2ccccc21 (configuration not stated)	.	-0.4%	6.5%	.	17.1%	-34.6%	?	0.8%
Cc1cc(Cl)cc2sc(NC(=O)c3ccco3)nc12	.	-1.8%	.	.	3.7%	.	40.5%[activator]	-12.8%
COc1ccccc1N1CCN(Cc2ccc(-c3ccccc3[N+](=O)[O-])o2)CC1	.	-3.6%	.	.	-9.6%	.	-26.9%	-6.5%
COc1cc(N=c2oc3c(C)ncc(CO)c3cc2C(N)=O)cc(OC)c1OC	.	1.4%	.	.	-19.5%	-27.0%[46.1 µM]	-4.0%	.
CC(=O)NCCc1ccc(C(=O)COC(=O)c2ccco2)cc1	.	-0.4%	2.5%	.	-3.5%	12.6%	-11.6%	.

Bioassay records (PubChem BioAssay)
